Screens deposited in PubChem by several laboratories.
MT1-MMP act inh = inhibitors of human MT1-MMP activation; P50281; HT1080 RFP-PRO-GFP cells, GFP/RFP ratio fluorescence, overnight; percent of plate control window, DMSO zero; GFP/RFP ratio change, % at 20 µM; actives 0.061% (n = 360,000);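 active = GFP/RFP ratio change of at least 30% with cell ATP level not reduced by more than half and red fluorescence within 50% of control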; note: strong numbers were not always called active
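Test system: HT1080 cells expressing an RFP-PRO-GFP fluorescent reporter construct / Compound dosing: single-point 20 µM compound, 1% DMSO / Schedule: cells overnight before dosing, compound overnight, 37 °C, 5% CO2 / Evaluation: GFP/RFP fluorescence ratio / Control set: DMSO and RFP-L50D-GFP cell wells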
CSC inhib = cancer stem cell inhibition. cancer stem cell-like cells viability, luminescence. inhibition, % at 7.5 µM. actives 1.1% (n = 300,000). AID 2717;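 active = mean at 75% or more and at least half the replicates too; tested in HMLE shEcad cells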;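 note: 0% = median of negative and 100% = median of positive control wells; the first replicate is given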
UUG fidelity = modulators of start codon recognition fidelity in yeast. S. cerevisiae UUG-firefly luciferase reporter, luminescence/redox ratio. activity score, % at 18.7 µM. actives 0.13% (n = 350,000). AID 602363;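 active = replicate mean at a twofold rise or more, about +100% in these data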;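 note: firefly luciferase made from a UUG start codon reports start codon fidelity; reporter light over untreated wells divided by growth signal over untreated wells; some hits fall short of that in this replicate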
Env fusion inh = HIV envelope-mediated fusion inhibition; inhibition, % at 12.3 µM; actives 1.1% (n = 360,000); AID 651610; HeLa-JRFL Env/CEM21 cell fusion, luciferase;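 active = mean replicate inhibition score of at least 50 and every replicate individually at or above 50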;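 note: 0% = plate neutral controls and 100% = maraviroc near 300 nM; one replicate is shown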
eIF4H inh = inhibitors of RNA binding by human eIF4H; inhibition, % at 35 µM; eIF4H fluorescence polarization binding assay; AID 2012; Q15056; actives 0.94% (n = 290,000);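 active = 50% or more with normal probe brightness, or confirmed in later tests; about a fifth of its hits are not listed in these tables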;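 note: calls also rest on retests at 20 µM and on dose response follow-up; 0% = protein and probe with vehicle and 100% = probe without protein; strong numbers were not always called active; many hits fall short of the cut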
PABP FP inh = PABP-poly(A) binding inhibition | P11940 | PABP-poly(A) RNA binding, fluorescence polarization | inhibition, % at 35 µM | actives 1% (n = 290,000) | AID 2014;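 active = 50% or more with normal probe brightness, or confirmed in later tests; about a fifth of its hits are not listed in these tables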;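 note: calls also rest on retests at 20 µM and on dose response follow-up; controls were probe without protein and protein plus probe with vehicle; some compounds called inactive have numbers as strong as hits; many hits fall short of the cut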
Target sequence (P11940 whole entry, looked up): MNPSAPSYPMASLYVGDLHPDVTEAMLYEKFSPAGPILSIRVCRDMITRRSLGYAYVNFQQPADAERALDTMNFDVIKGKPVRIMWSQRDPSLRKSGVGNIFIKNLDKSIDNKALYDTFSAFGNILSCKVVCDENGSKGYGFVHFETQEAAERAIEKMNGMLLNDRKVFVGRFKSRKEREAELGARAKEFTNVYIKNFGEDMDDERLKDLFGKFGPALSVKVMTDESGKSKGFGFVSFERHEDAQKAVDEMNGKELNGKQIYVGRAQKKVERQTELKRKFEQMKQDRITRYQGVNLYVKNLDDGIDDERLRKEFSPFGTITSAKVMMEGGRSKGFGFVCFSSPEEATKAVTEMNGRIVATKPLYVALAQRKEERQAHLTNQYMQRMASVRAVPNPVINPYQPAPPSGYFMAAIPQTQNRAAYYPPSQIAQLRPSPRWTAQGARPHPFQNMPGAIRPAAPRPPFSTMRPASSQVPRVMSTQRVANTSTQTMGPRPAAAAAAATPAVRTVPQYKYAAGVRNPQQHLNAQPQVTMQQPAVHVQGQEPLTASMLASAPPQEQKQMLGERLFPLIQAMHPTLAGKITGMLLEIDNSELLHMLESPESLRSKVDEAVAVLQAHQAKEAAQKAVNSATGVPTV
Rce1 inhib = inhibitors of yeast Ras-converting enzyme; Q03530; yeast membranes, quenched prenylated peptide cleavage fluorescence; calls only; actives 0.27% (n = 290,000); AID 2563;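 active = fall in fluorescence gain of 50% or more versus controls, with final raw signal at or below 3038400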;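 note: plate controls were neutral control wells for no effect and wells lacking membranes for full effect; tested at 10 µM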
Target sequence (Q03530 whole entry, looked up): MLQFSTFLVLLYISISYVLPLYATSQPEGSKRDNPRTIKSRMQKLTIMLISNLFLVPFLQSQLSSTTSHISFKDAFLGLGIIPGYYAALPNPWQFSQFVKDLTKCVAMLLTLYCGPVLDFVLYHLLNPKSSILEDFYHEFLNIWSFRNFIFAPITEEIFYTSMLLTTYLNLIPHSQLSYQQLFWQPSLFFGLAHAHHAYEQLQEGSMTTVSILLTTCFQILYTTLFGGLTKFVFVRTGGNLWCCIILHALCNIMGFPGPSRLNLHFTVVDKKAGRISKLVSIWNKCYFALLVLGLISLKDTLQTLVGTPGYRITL
eIF4H inh retest = further read-out of eIF4H inh, marked with its call; inhibition, %; compound at 20 µM; confirmation average;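 mean of two retest wells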
PABP FP inh retest = second read-out of PABP FP inh, no call of its own (marks repeat the call); inhibition, %; compound at 20 µM; confirmation repeats;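 mean of two retest wells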
MT1-MMP act inh RFP = recorded beside MT1-MMP act inh, whose call it bears; RFP signal change, %; measured here: RFP expression control read;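 0 = vehicle wells; hits needed this value within 50% of zero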
Active calls of the source: *; i = inactive; nt = no result given.

SMILES	MT1-MMP act inh	MT1-MMP act inh RFP	CSC inhib	UUG fidelity	Env fusion inh	eIF4H inh	PABP FP inh	Rce1 inhib	others
CCOc1cccc(C(=O)Nc2cc(-c3nn4c(C)nnc4s3)ccc2C)c1	2.8	7.2	nt	-10.9	-14.8	-1.4	-17.6	i
CC(C)CCN1CCN(Cc2ccc3nsnc3c2)CC1CCO (configuration not stated)	-0.6	0.9	8.0	nt	-5.2	-4.2	-3.8	i
CCSc1nc2ccccc2c(=O)n1-c1c(C)n(C)n(-c2ccccc2)c1=O	1.3	1.2	6.8	nt	1.4	5.3	6.7	i
COC(=O)CSc1nc(-c2ccc(F)cc2)cc(C(F)(F)F)n1	1.3	-0.4	-5.5	-3.3	nt	3.5	0.4	i
Cc1ccc(-c2nnc(SCC(=O)N3CCCC3)o2)cc1C	-0.3	-1.1	-17.3	-6.7	nt	-8.3	-4.0	i
CCN1CCN(C(=O)CCc2nnc(CCCCc3ccccc3)o2)[C@@H](C)C1=O	1.2	2.2	1.5	nt	14.6	-2.6	-2.8	nt
COC(=O)C1(Cc2cc(-c3ccc([N+](=O)[O-])cc3)no2)CCN(C(=O)OC(C)(C)C)CC1	4.8	-8.3	22.3	-15.2	22.7	nt	nt	i
COc1cc(NC(=S)Nc2ccc(S(=O)(=O)N3CCOCC3)cc2)cc(OC)c1OC	5.1	2.0	-0.8	-30.1	nt	-1.2	3.5	i
CC(=O)Nc1ccc(SCC(=O)Nc2ccc(Cl)cn2)cc1	2.8	2.1	-6.5	-15.5	7.4	-1.2	7.6	i
CC(OC(=O)C1CC1)C(=O)Nc1cc(Cl)cc(Cl)c1 (configuration not stated)	1.5	-8.9	-4.5	-10.4	-2.1	nt	nt	nt
O=c1[nH]c(-c2ccccc2O)nc2c1CCCC2	0.6	-5.6	1.1	-6.7	nt	-4.3	-4.3	i
Cc1cc(C)cc(OCC(=O)NNC(=O)CCC(=O)NCc2ccccc2)c1	2.2	5.2	-9.3	-3.7	nt	-1.8	4.9	i
Cc1ccc(NS(=O)(=O)c2ccc3[nH]c(=O)[nH]c3c2)c(C)c1	-1.4	-3.7	-18.4	-9.3	1.8	-8.6	7.9	i
CCn1c(C)[n+](CCOCC[n+]2c(C)n(CC)c3cc(Cl)c(Cl)cc32)c2cc(Cl)c(Cl)cc21	-0.6	-3.2	-1.2	4.8	nt	-1.4	68.2	nt	eIF4H inh retest=4.6;PABP FP inh retest=-3.0
O=C(OCc1nc2ccccc2s1)c1cccc(N2C(=O)CCC2=O)c1	-7.1	-3.0	-9.4	nt	4.0	3.4	6.9	i
Cc1ccc(S(=O)(=O)N2CCN(C(=O)c3ccc(Cl)nc3)CC2)cc1	2.2	-2.8	18.2	nt	-6.3	0.0	9.7	i
COC(=O)c1cc(S(=O)(=O)N2CCN(c3ccc(F)cc3)CC2)c[nH]1	-2.1	-7.6	0.3	nt	-5.2	-9.5	3.4	i
CCc1ccc(N2CC(C)Cn3c2nc2c3c(=O)[nH]c(=O)n2C)cc1 (configuration not stated)	6.8	1.2	13.8	nt	11.3	-8.4	-1.2	i
CCOc1ccc(/C=N/Nc2nc(N3CCCC3)nc(N3CCCC3)n2)cc1OC	-3.6	-2.0	-0.2	-16.4	nt	4.8	-2.7	i
COc1ccc([C@@H]2CC=C(C(=O)O)[C@H](c3ccc(Br)cc3)N2S(=O)(=O)c2ccccc2C)cc1	-3.1	1.7	nt	-9.4	-15.0	nt	nt	nt
Cc1csc(NC(=O)c2cnc3ccccc3n2)n1	-1.6	-2.1	-5.0	-40.4	-15.8	-0.1	-8.2	i
COc1ccc(C(=O)NC2CCCN(Cc3ccccc3F)C2)c(OC)c1OC (configuration not stated)	0.0	0.1	42.3	0.6	6.6	-7.0	-3.7	i
CCCc1nc(C)c2c(=O)[nH]c(-c3cc(S(=O)(=O)N4CCN(CC)CC4)ccc3OCC)nn12	2.1	6.0	-9.4	5.1	nt	nt	nt	i
COc1ccc(/C=N\NC(=S)SCN2C(=O)C3CCC(C)(C2=O)C3(C)C)cc1 (configuration not stated)	-0.7	-1.7	11.7	-21.1	nt	nt	nt	i
O=C(NCCc1ccccc1)c1ccc(NC(=O)C2CC2)cc1	5.1	3.8	nt	-12.5	-12.7	nt	nt	nt
COc1cccc(/C=C/C(=O)NCc2ccc(S(N)(=O)=O)cc2)c1	1.2	-0.9	-9.8	-4.4	-4.9	3.6	-6.0	i
COc1cccc(OCCOc2ccccc2[N+](=O)[O-])c1	5.1	-4.1	0.5	nt	nt	nt	nt	i
CCOC(=O)c1ccc(NC(=O)N2CCN(C(=O)C3CCCO3)CC2)cc1 (configuration not stated)	-2.5	1.3	nt	nt	-49.4	3.6	5.4	i
Cc1cccn2c(=O)c(C=O)c(N3CCN(c4ccc(F)cc4)CC3)nc12	3.1	5.7	-3.5	nt	3.6	96.1*	36.1*	i	eIF4H inh retest=86.3*;PABP FP inh retest=65.1*
Cc1ccc2c(c1)c1c(n2CC(O)Cn2c(C)nc3ccccc32)/C(=N\O)CCC1 (configuration not stated)	2.8	-2.5	38.7	-0.6	nt	-0.4	7.9	i
CCOC(=O)C1CCN(C(=O)c2ccccc2NS(=O)(=O)c2ccc(C)cc2)CC1	-1.2	-1.8	7.7	2.3	7.6	-13.7	-11.0	i
Cc1cccc(C)c1NC(=O)C1CC2CCC1C2 (configuration not stated)	2.0	4.4	nt	0.0	-0.6	nt	nt	i
NC(=O)c1ccsc1NC(=O)CS(=O)(=O)c1ccc(F)cc1	0.6	2.8	3.3	-11.2	3.0	nt	nt	i
Cc1nn(C)c(C(=O)Nc2ccn(C34CC5CC(CC(C5)C3)C4)n2)c1[N+](=O)[O-]	-10.6	-18.5	8.6	nt	4.1	-6.7	-5.0	i
Cc1ccc(C(=O)NCCN2C3=NC[C@H](Cc4ccc(O)cc4)N3C[C@H]2Cc2ccc(O)cc2)cc1Br	-2.1	2.2	-6.7	-3.1	-93.7	-1.0	-13.3	i
Cc1oc2ccc(O)cc2c1C(=O)c1ccc(Br)cc1	-5.3	-14.4	15.8	nt	-4.1	nt	nt	i
Cc1ccccc1NC(=O)NNC(=O)CCc1ccccc1	1.5	-1.3	-3.6	-9.3	21.1	-9.1	-5.7	i
COc1ccccc1NC(=O)Nc1nnc(CC(=O)Nc2ccccc2)s1	nt	nt	-1.7	nt	7.7	-7.0	-4.9	i
CNc1nc(NC)nc(-n2c(C(F)(F)F)nc3ccccc32)n1	2.6	-0.7	2.5	-11.3	-279.5	-6.7	-11.9	i
CCOc1ccccc1-c1nc(CN2CCCN(C(=O)c3ccco3)CC2)c(C)o1	-3.5	2.5	-5.8	-4.8	12.2	-1.6	0.3	i
O=C(Cc1ccc(Br)cc1)N/N=C/c1cccnc1	0.4	-0.5	-8.2	-12.0	8.6	-1.0	-9.1	i
COc1ccc(Cl)cc1S(=O)(=O)NCc1ccncc1	-1.9	-9.9	-7.0	-8.1	5.6	2.4	1.0	i
CNC(=O)c1ccc2snnc2c1	-0.3	1.7	6.7	-6.9	28.1	-0.5	-1.0	i
CCN1CCN(c2ncnc3sc4c(c23)CCC(C)C4)CC1 (configuration not stated)	0.9	0.6	-6.7	-6.0	19.1	1.8	-1.8	i
CCc1c(C)nc2[nH]nc(NC(=O)C(F)(F)F)n2c1=O	-1.6	0.8	-4.3	-7.1	nt	2.4	10.4	i

Part of the list above in order of molecular weight, low to high:
SMILES	MT1-MMP act inh	MT1-MMP act inh RFP	CSC inhib	UUG fidelity	Env fusion inh	eIF4H inh	PABP FP inh	Rce1 inhib	others
CNC(=O)c1ccc2snnc2c1	-0.3	1.7	6.7	-6.9	28.1	-0.5	-1.0	i
Cc1cccc(C)c1NC(=O)C1CC2CCC1C2 (configuration not stated)	2.0	4.4	nt	0.0	-0.6	nt	nt	i
CCc1c(C)nc2[nH]nc(NC(=O)C(F)(F)F)n2c1=O	-1.6	0.8	-4.3	-7.1	nt	2.4	10.4	i
COc1ccc(Cl)cc1S(=O)(=O)NCc1ccncc1	-1.9	-9.9	-7.0	-8.1	5.6	2.4	1.0	i
CCN1CCN(c2ncnc3sc4c(c23)CCC(C)C4)CC1 (configuration not stated)	0.9	0.6	-6.7	-6.0	19.1	1.8	-1.8	i
O=C(Cc1ccc(Br)cc1)N/N=C/c1cccnc1	0.4	-0.5	-8.2	-12.0	8.6	-1.0	-9.1	i
CNc1nc(NC)nc(-n2c(C(F)(F)F)nc3ccccc32)n1	2.6	-0.7	2.5	-11.3	-279.5	-6.7	-11.9	i
Cc1oc2ccc(O)cc2c1C(=O)c1ccc(Br)cc1	-5.3	-14.4	15.8	nt	-4.1	nt	nt	i
Cc1cccn2c(=O)c(C=O)c(N3CCN(c4ccc(F)cc4)CC3)nc12	3.1	5.7	-3.5	nt	3.6	96.1*	36.1*	i	eIF4H inh retest=86.3*;PABP FP inh retest=65.1*
COc1ccccc1NC(=O)Nc1nnc(CC(=O)Nc2ccccc2)s1	nt	nt	-1.7	nt	7.7	-7.0	-4.9	i
Cc1nn(C)c(C(=O)Nc2ccn(C34CC5CC(CC(C5)C3)C4)n2)c1[N+](=O)[O-]	-10.6	-18.5	8.6	nt	4.1	-6.7	-5.0	i
Cc1ccc2c(c1)c1c(n2CC(O)Cn2c(C)nc3ccccc32)/C(=N\O)CCC1 (configuration not stated)	2.8	-2.5	38.7	-0.6	nt	-0.4	7.9	i
CCOc1ccccc1-c1nc(CN2CCCN(C(=O)c3ccco3)CC2)c(C)o1	-3.5	2.5	-5.8	-4.8	12.2	-1.6	0.3	i
CCOC(=O)C1CCN(C(=O)c2ccccc2NS(=O)(=O)c2ccc(C)cc2)CC1	-1.2	-1.8	7.7	2.3	7.6	-13.7	-11.0	i

Next section
SMILES	MT1-MMP act inh	MT1-MMP act inh RFP	CSC inhib	UUG fidelity	Env fusion inh	eIF4H inh	PABP FP inh	Rce1 inhib	others
CCOC(=O)C1=C(C(F)(F)F)Nc2ncnn2C1c1cccc(OC)c1OC (configuration not stated)	-3.3	1.3	0.3	-13.3	-17.5	-1.7	-3.7	i
CCC1=C(OC(=O)N(CC)CC)N2C(=O)OC(=NCCc3c[nH]c4ccccc34)[C@]2(C)[C@H]2C1=CC[C@H]1C(=O)N(CC)C(=O)[C@H]12	-3.0	-7.2	10.5	-9.7	-12.3	-1.8	-0.8	i
Cc1ccccc1N1C(=O)c2ccccc2N2C(=O)c3ccccc3C12 (configuration not stated)	-4.0	-2.3	-0.1	nt	nt	5.5	-8.2	i
COc1ccccc1/C=C1\SC(=O)N(CC(=O)N(C)C2CCS(=O)(=O)C2)C1=O (configuration not stated)	-2.5	-0.5	-6.6	-14.8	-4.0	-8.9	-6.2	i
Cc1ccccc1N(C(=O)CNC(=O)c1ccco1)C(C(=O)NC1CCCC1)c1ccncc1 (configuration not stated)	-2.5	1.4	-1.0	-11.7	2.4	-1.4	8.1	i
CC(C)c1ccc(/C=N/NC(=O)c2cccc(Cl)c2)cc1	0.6	-7.1	90.5*	nt	-251.2	4.2	1.4	i
O=C(/C=C/c1cccc2ccccc12)NCCC1=CCCCC1	-4.6	-1.0	-3.6	-14.2	nt	1.4	1.4	i
Cc1ccc(OCC(=O)Nc2cc(S(=O)(=O)N3CCCCC3)ccc2N2CCN(C)CC2)c(C)c1	-2.5	-0.4	14.0	3.2	4.1	nt	nt	i
O=C(Nc1ncn[nH]1)C(F)(F)C(F)F	1.9	3.5	1.0	-3.5	nt	8.2	0.2	i
